High-throughput results: PubChem, National Center for Advancing Translational Sciences (NCATS)
Vaccinia Venus: qHTS for Stage-Specific Inhibitors of Vaccinia Orthopoxvirus: Venus Reporter Primary qHTS. AID 720580, 2013. Vaccinia virus Venus reporter expression, fluorescence. Potency, µM (doses to about 36.5 µM), without a hit: at the top dose activity change, negative = inhibition, hits mostly inhibitors. 0.46% of 330,000 active; active means well fitted inhibition curve with a large enough effect; inconclusive means small, poorly fitted or top-dose-only effect; inactive means no such curve, though single readings can be large or run the other way; tested in A549 cells; further: nearly all actives have a fitted effect of over 30% in size; inactives centre near -10
Vaccinia mCherry: qHTS for Stage-Specific Inhibitors of Vaccinia Orthopoxvirus: mCherry Reporter Primary qHTS. Potency, µM (series often up to 36.5 µM), for inactives: at the top dose activity change, negative = inhibition, usual class: inhibitors. Vaccinia virus mCherry reporter infection, fluorescence; about a quarter of the inactives have no number. AID 720579, 2013. 0.63% of 310,000 active; active = well fitted inhibition curve with a large enough effect; inconclusive = small, poorly fitted or top-dose-only effect; inactive = no such curve, though single readings can be large or run the other way; tested in A549 cells; further: nearly all actives have a fitted effect of over 35% in size; inactives centre near -10
* hit, by the source's call; i = inactive; u = inconclusive; x = not tested or not shown; [ ] = another dose, or the depositor's remark. On the % scale 0 is the no-effect control and ±100 the full control effect; potency means the concentration at half of the fitted maximal effect.

The opening 2 compounds as a preview:
Order of values: Vaccinia Venus	Vaccinia mCherry
> Cc1ccc(CN(CC(=O)NC2CCCCC2)C(=O)c2csnn2)cc1
→ 0%	i
> CCCC(C)NC(=O)c1ccc2[nH]c3c(c2c1)CC(C)CC3 (stereo not given)
→ -30%	x

The list itself, repeating the preview:
Order of values: Vaccinia Venus	Vaccinia mCherry
> Cc1ccc(CN(CC(=O)NC2CCCCC2)C(=O)c2csnn2)cc1
→ 0%	i
> CCCC(C)NC(=O)c1ccc2[nH]c3c(c2c1)CC(C)CC3 (stereo not given)
→ -30%	x
> OC[C@@H](O)[C@@H](O)[C@H](O)[C@H](O)CO
→ -7%	0%
> Cc1c(C(=O)OCC(=O)N2CC(=O)Nc3ccccc32)oc2ccc(Br)cc12
→ -5%	-1%
> CCCCCc1nc2sc3c(c2c(=O)n1NC(=O)c1ccc([N+](=O)[O-])cc1)CC(C)(C)OC3
→ u	-3%
> CCOc1ccc(N2C(=O)/C(=C\c3cccs3)C(=O)NC2=S)cc1
→ 92%[activator]	32%[activator]
> COc1cc2c(cc1OC)C(c1ccc(Br)cc1)NCC2 (stereo not given)
→ 2%	i
> O=C1CCCC(O)=C1N=Nc1ccc(C(=O)O)cc1
→ -4%	-9%
> Cc1ccc(NS(=O)(=O)c2ccc3c(c2)CC(=O)N3)cc1F
→ -11%	-23%
> O=C(COC(=O)/C=C/c1ccc(Cl)cc1)Nc1ccccc1-c1ccccc1
→ -10%	-17%
> CSc1cccc(NC(=O)c2cccc3cccnc23)c1
→ 5%	-18%
> Cc1cc(=O)[nH]c(SCC(=O)Nc2ccc(Cl)cn2)n1
→ -10%	-3%
> C=CCn1c(SCC(=O)N2CCOCC2)nc2sc(C)c(C)c2c1=O
→ -5%	21%
> CCOC(=O)c1[nH]c(C)c(C(=O)OC)c1C
→ -9%	-2%
> CC(=O)N(/N=C1\Sc2ccccc2C1=O)c1ccccc1C
→ 0%	-6%
> COc1ccc(NC(=O)CCN2CC(C)OC(C)C2)c(OC)c1 (stereo not given)
→ 6%	-3%
> O=C(NN1CCCCC1)c1cnn2c(C(F)F)cc(-c3ccccc3)nc12
→ -11%	i
> CCc1ccc(S(=O)(=O)c2n[nH]n3c2nc(=O)c2ccccc23)cc1
→ -1%	i
> COc1cccc(NC(=O)c2cc([N+](=O)[O-])ccc2N2CCN(C)CC2)c1
→ -8%	i
> CC(=O)NCCc1cc2cc(C)c(C)cc2[nH]c1=O
→ -2%	-21%

Order of values: Vaccinia Venus	Vaccinia mCherry
> CCNc1nnc(SCC(=O)c2cc(C)n(C3CC3)c2C)s1
→ -18%	-4%
> COc1ccc(C2=NN(c3nc(C(=O)O)cs3)C(O)(C(F)(F)F)C2)c(OC)c1 (stereo not given)
→ -3%	-11%
> CC(=O)NC(CC(=O)NC1CCCCC1)c1ccccc1 (stereo not given)
→ -8%	-10%
> CCOC(=O)N1CCC(N2C(=O)c3ccccc3C2Nc2ccc3c(C)cc(=O)oc3c2)CC1 (stereo not given)
→ -7%	28%
> CCOC(=O)N1CCN(C(=O)COC(=O)CNC(=O)c2ccc(C)cc2)CC1
→ -10%	i
> CNC(=O)c1nnc(Cc2ccc(F)cc2)o1
→ -4%	-9%
> CCOC(=O)c1sc(NC(=O)CSc2ncn[nH]2)c(C#N)c1C
→ -1%	i
> CCCCC(O)(CCCC)C(=O)NN(C(=O)OC)c1ccc(C)cc1
→ -9%	-12%
> Cc1nc(C(=O)N2CCC(C)(C(=O)NS(=O)(=O)C3CC3)C2)c(C)o1 (stereo not given)
→ -3%	i
> Cc1cccc(S(=O)(=O)NC(=O)C2(C)CCN2C(=O)Cc2ccc(C(C)(C)C)cc2)c1 (stereo not given)
→ -3%	-15%
> Cc1cccc2cc(CN(Cc3nnnn3C3CCCC3)C3CCCCC3)c(=O)[nH]c12
→ -12%	-6%
> CC(C(=O)Nc1ccccc1F)N1C(=O)c2ccccc2C1=O (stereo not given)
→ -4%	-8%[1.46 µM]
> COc1cccc(N2CCN(S(=O)(=O)c3ccc4[nH]c5c(c4c3)CCCC5)CC2)c1
→ -12%	-11%
> O=C(NCCN1CCOCC1)c1cccs1
→ -8%	x
> O=C(CSc1nnc2ccccn12)Nc1ccccc1C(=O)O
→ -5%	i
> Cc1ccc(C)c(C(=O)CN2C3=NCCCN3c3ccccc32)c1
→ -22%	-10%
> COc1cc(S(=O)(=O)NCC2CCCO2)c(OC)cc1Cl (stereo not given)
→ -10%	x
> COc1ccc(OC)c(/C=N/NC(=O)c2ccc3nc[nH]c3c2)c1
→ -5%	-3%
> COc1ccccc1Oc1coc2c(CN(C)C)c(O)ccc2c1=O
→ 16%	x
> CCOc1ccc(N=C2C(=O)N(CN3CCOCC3)c3ccccc32)cc1
→ 0%	x

Compound profiles (already shown). Order of values: Vaccinia Venus, Vaccinia mCherry
Listed for O=C(NCCN1CCOCC1)c1cccs1 → -8%, x
Listed for COc1ccc(OC)c(/C=N/NC(=O)c2ccc3nc[nH]c3c2)c1 → -5%, -3%
Listed for CCOC(=O)N1CCC(N2C(=O)c3ccccc3C2Nc2ccc3c(C)cc(=O)oc3c2)CC1 (stereo not given) → -7%, 28%
Listed for CCOC(=O)N1CCN(C(=O)COC(=O)CNC(=O)c2ccc(C)cc2)CC1 → -10%, i

The list continues.
Order of values: Vaccinia Venus	Vaccinia mCherry
> N#CCOc1ccccc1CNC[C@H]1O[C@@H](n2cnc(C(N)=O)n2)[C@H](O)[C@@H]1O
→ -4%	i
> Cc1nnc(SCc2ccc(C(=O)Nc3cc(Cl)ccc3C)cc2)s1
→ -13%	i
> O=C(c1ccc2c(=O)n3c(nc2c1)CCC3)N1CCN(S(=O)(=O)c2cccc(F)c2)CC1
→ 1%	-1%
> CP(=O)(Nc1ccccc1)C(Cl)(Cl)Cl (stereo not given)
→ -8%	i
> Cc1ccc(S(=O)(=O)Nc2ccc3ccccc3n2)cc1
→ -20%	i
> O=[N+]([O-])c1ccccc1Nc1ccccc1
→ -1%	-16%
> CCCCn1c(-c2cccc(Br)c2)nc2cc3[nH]c(=O)c(C(C)C)nc3cc21
→ u	u
> CCc1ccccc1Nc1ncnc2c1cnn2-c1ccc(Cl)cc1
→ 3%	-7%
> COC(=O)[C@H](CCSC)NC(=O)Nc1ccc(S(N)(=O)=O)cc1
→ -13%	-8%
> COc1ccccc1N(CC(=O)N1CCCCCC1)S(=O)(=O)c1ccc(C)cc1
→ -11%	-11%
> CCOC(=O)c1ccc(CN2Cc3ccccc3C2=O)cc1
→ -13%	i
> Cc1csc(NC(=O)C2CCCCC2C(=O)O)n1 (stereo not given)
→ -2%	-4%
> CCn1c(=O)c2cc(C(=O)NCc3cccs3)sc2c2ccccc21
→ -9%	10%
> O=C(CCc1ccccc1)NCC1OCCc2ccccc21 (stereo not given)
→ -11%	-4%
> COc1ccc(C(=O)NN/C=C/C(=O)c2ccc(Br)cc2)cc1
→ -16%	-6%
> c1cc2[nH]c3ccncc3c2cn1
→ -6%	i
> COc1ccc(CCNC(=O)CN(c2ccccc2OC)S(C)(=O)=O)cc1OC
→ 0%	i
> O/N=C(\Cc1cscn1)c1ccc(O)cc1O
→ -11%	-1%
> CCN1CCC(N2CCN(c3ccc(F)cc3)CC2)CC1
→ -8%	-14%
> CS(=O)(=O)c1ccc(C(=O)OCC(=O)NCC2CCCO2)cc1[N+](=O)[O-] (stereo not given)
→ -14%	-14%

Order of values: Vaccinia Venus	Vaccinia mCherry
> CC(=O)Nc1ccc(NC(=O)COC(=O)c2cc(S(=O)(=O)N3CCCC3)ccc2O)cc1
→ 4%	-3%
> O=C(Nc1ccc(Cl)cc1)Nc1ccccc1NS(=O)(=O)c1cccs1
→ -8%	i
> Cc1ccc(S(=O)(=O)N2CCC(C(=O)OCC(=O)N(C)C3CCS(=O)(=O)C3)CC2)cc1C (stereo not given)
→ -9%	i
> CCCS(=O)(=O)NC(=O)C1(C)CCCN(C(=O)c2nc3ccccc3s2)C1 (stereo not given)
→ 7%	15%
> COc1ccc(S(=O)(=O)N(C)c2ccc(C(=O)NCc3ccco3)cc2)cc1OC
→ -19%	-23%
> Cc1ccnc(NC(=S)N2CCN(c3cccc(C(F)(F)F)c3)CC2)c1
→ u	u
> CCC(C)(C)n1nnnc1C(c1cc(OC)ccc1OC)N1CCC(C(N)=O)CC1 (stereo not given)
→ -7%	i
> COc1ccc2c(Sc3ccccc3)c(C(=O)NCCCN3CCCCC3)[nH]c2c1
→ -25%	i
> COc1ccc(NC(=S)NC2CCN(Cc3ccccc3)CC2)cc1OC
→ -21%	-13%
> Cc1csc(NC(=O)/C=C/c2ccco2)n1
→ -12%	-28%
> CC(C)n1c(=O)c2ccccc2n1S(C)(=O)=O
→ -4%	-7%
> CCc1cccc(NC(=O)CCCN2C(=O)NC(C)(C)C2=O)c1
→ -8%	-13%
> Cn1c(=O)c2ccccc2n2c(=S)[nH]nc12
→ -4%	-4%
> CN(C)c1cc(-c2ccc(Br)cc2)oc(=O)c1Cl
→ u	u
> c1ccc(Nc2nc(-c3ccccn3)cs2)cc1
→ -27%	-29%
> O=C(Nc1ccc2nc(-c3cccnc3)[nH]c2c1)C12CC3CC(CC(C3)C1)C2
→ -28%	-23%
> O=C(c1cc2c(s1)-c1ccccc1OC2)N1CCN(c2ccccn2)CC1
→ 6%	1%
> CCOc1ccc(-n2ccnc(SCC(=O)NCc3cccc(OC)c3)c2=O)cc1
→ -25%	u
> O=C(Cc1ccccc1[N+](=O)[O-])NCCCN1CCOCC1
→ -4%	-9%
> O=C(NCc1ccc2c(c1)CCN2C(=O)c1ccc(F)cc1)c1ccco1
→ -11%	-20%

Order of values: Vaccinia Venus	Vaccinia mCherry
> Cc1c(C#N)c(NC(=O)C(C)C)n(Cc2ccccc2)c1C
→ 0%	i
> Cc1ccc(S(=O)(=O)N2CCN(C(=O)Cc3sc(C)nc3-c3ccc(F)cc3)CC2)c(C)c1
→ u	u
> Cc1ccc(NC(=O)c2cc(S(=O)(=O)N3CCOCC3)cn2C)cc1Cl
→ -2%	6%
> Cc1cc(C)c(NC(=O)c2cc(S(=O)(=O)N3CCN(c4ccccc4F)CC3)ccc2F)c(C)c1
→ -20%	-21%
> COc1cccc(C2c3[nH]c4ccccc4c3C[C@H]3C(=O)N(c4ccccc4C(=O)N4CCCC4C(=O)O)C(=O)N23)c1 (stereo not given in full)
→ -7%	3%
> CCn1c2ccccc2nc2cc3c(cc21)c(Cl)c(=O)c1ccccc13
→ u	u
> Nc1nc(N)c2nc(CNc3ccc(C(=O)NC(CCC(=O)O)C(=O)O)cc3)cnc2n1 (stereo not given)
→ -9%	-8%
> CCOc1ccc(S(=O)(=O)N(C)c2ccc(OCC(=O)NCc3ccco3)cc2)cc1
→ -25%	-13%
> CC(=O)c1ccc(NC(=O)CSc2cn(CC(=O)N(C(C)C)C(C)C)c3ccccc23)cc1
→ -8%	-2%
> CC(=O)Nc1ccc2c(c1)N(C(C)=O)c1ccccc1CC2
→ -8%	-8%
> Cc1cc(NCc2ccccc2)nc2ccccc12
→ -27%	x
> Cc1nc2c(C(=O)NCCC(C)C)cnn2c(C)c1Cc1c(F)cccc1Cl
→ -16%	-19%
> O=C1CN(C(=O)c2ccccc2F)c2ccccc2N1
→ -13%	i
> CCCCC(CC)CNC(=O)c1ccc2c(=O)n(CCOC)c(=O)[nH]c2c1 (stereo not given)
→ 12%	1%
> N#CCN(C(=O)COC(=O)CCCNC(=O)c1ccc(Cl)cc1)c1ccccc1
→ -18%	i
> CCN(CCCNC(=O)C1c2ccccc2C(=O)N(CCOC)C1c1ccc(F)cc1)Cc1ccccc1 (stereo not given)
→ -12%	-19%
> CCOc1ccc(-c2ccc(SCC(=O)Nc3nnc(C)s3)nn2)cc1
→ -3%	i
> O=C(C1=C[C@H](c2ccc3c(c2)OCO3)C[C@H](OCc2ccc(CO)cc2)O1)N1CCCCCCC1
→ -19%	i
> O=C(CC[C@H]1O[C@@H](n2cnc3c(NC(=O)c4ccccc4)ncnc32)[C@H](O)[C@@H]1O)NCC(F)(F)F
→ 6%	22%
> COCc1nnc(SCC(=O)NCc2ccccc2)n1-c1ccccc1
→ -5%	i

Order of values: Vaccinia Venus	Vaccinia mCherry
> COC(=O)c1ccccc1NC(=O)c1nc(SCc2ccccc2C)ncc1Cl
→ 9%	-4%
> O=C(N/C=C/n1cnc2cc(C(F)(F)F)ccc21)c1ccccc1
→ 1%	-5%
> COCCCNC(=O)CN(CCc1ccccc1)S(=O)(=O)c1ccc(OC)cc1
→ -9%	-6%
> CCCCCCn1c(CN2CCN(C(=O)OCC)CC2)nc2c1c(=O)n(C)c(=O)n2C
→ 4%	-13%
> S=C(NCc1ccccc1)Nc1ccc2ccccc2c1
→ -13%	u
> N=C(N)SCc1ccc(Cl)cc1Cl
→ -20%	-10%
> NS(=O)(=O)c1ccc(CCNC(=O)CN2CCCCCC2)cc1
→ -9%	i
> O=c1[nH]cnc2sc3c(c12)CN(Cc1ccccc1)CC3
→ -10%	-13%
> COc1ccccc1N1C(=O)C2C3C=CC(CC3)C2C1=O (stereo not given)
→ -10%	i
> COC(=O)COc1coc(CN2CCN(c3cccc(Cl)c3)CC2)cc1=O
→ -12%	-15%
> COc1ccccc1NC(=O)c1ccc([N+](=O)[O-])cc1[N+](=O)[O-]
→ -22%	u
> CCOc1ccccc1C1CC(c2ccccc2)Nc2nc(N)nn21 (stereo not given)
→ -10%	-4%
> O=C(Cn1cc(C=C2C(=O)NC(=O)NC2=O)c2ccccc21)NCC1CCCO1 (stereo not given)
→ -12%	i
> NC(=O)C1C(=O)c2ccccc2C1(C[N+](=O)[O-])c1ccccc1 (stereo not given)
→ 0%	i
> CCc1cccc(CC)c1NC(=O)C(CC)Sc1nc2ccncc2[nH]1 (stereo not given)
→ -5%	10%
